HIV TAR-Tat = HIV-1 TAR-Tat binding disruption; HIV-1 TAR RNA, Tat peptide displacement FRET; active compounds read high; z-score (no concentration beside the values); actives 0.6% (n = 100,000); AID 1259389;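 further: score is relative to mean and SD of negative controls; some compounds called inactive have numbers as strong as hits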
CDC25B CDK2 inh = human CDC25B-CDK2/CyclinA binding inhibition | z-score (no concentration beside the values) | AID 1259370 | actives 0.72% (n = 94,000) | P30305+P24941 | HTRF CDC25B-CDK2/CyclinA binding, anti-His/anti-Flag; active compounds read high;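 further: score is relative to mean and SD of negative controls; strong numbers were not always called active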
Numbers without * were called inactive; · = not tested or not shown.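 How the source made its calls: active means z-score from 3 up in half or more of its runs; inactive means the rest.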

Every second line gives: HIV TAR-Tat	CDC25B CDK2 inh
O=C(Cn1ccc2ccccc2c1=O)NCCC1=CCCCC1
 : 1.7	0.68
Cc1ccc(C)c(NCc2c(CO)cnc(C)c2O)c1
 : 1	·
O=C(c1cc2c(s1)-c1ccccc1OC2)N(Cc1ccco1)C1CCCCC1
 : 2.5	-1.3
CC1(C)N=C(N)NC(Nc2ccc(F)c(F)c2)=N1
 : ·	-0.39
CC1CCc2[nH]c3ccc(C(=O)O)cc3c2C1 (stereo not drawn)
 : 0.54	-7
CCOc1ccc(Br)cc1C1CC(=O)Nc2cc(OC)c(OC)cc21 (stereo not drawn)
 : ·	-1.9
COCCOC(=O)C1=C(C)NC(C)=C(C(=O)OC/C=C/c2ccccc2)C1c1cccc([N+](=O)[O-])c1 (stereo not drawn)
 : ·	-1.2
CCOC(=O)C1CCN(C(=O)c2cc(S(=O)(=O)N3CCCC3)cn2C)CC1
 : 0.11	·
O=C(NC(=O)c1c(F)cccc1Cl)Nc1ccccc1N1CCCCC1
 : ·	-0.56
O=C1CC(c2ccc(Br)cc2)c2cnn(-c3nc4ccccc4s3)c2N1 (stereo not drawn)
 : 1.2	·
CCCn1c(=O)c2sccc2n2c(CCCC(=O)N3CCc4ccccc4C3)nnc12
 : 1.3	·
O=C(NCCCSC1CCCCC1)Nc1ccc(Cl)cc1
 : 1.4	·
O=C(CN1N=NC2C(=O)N(c3ccc(Br)cc3)C(=O)C21)Nc1cccc(F)c1 (stereo not drawn)
 : 2.1	·
COCCCNS(=O)(=O)c1cc(Br)cc2c1N(C(C)=O)CC2
 : ·	-0.93
O=S1(=O)CC2N=C(N(Cc3ccc(F)cc3Cl)c3ccccc3)SC2C1 (stereo not drawn)
 : 0.26	-2
Cc1cc(C)c2nc(Nc3nc(C)cc(C)n3)nc(C)c2c1
 : 3.4	-0.15
CCN(Cc1cc(=O)n2c(C)csc2n1)c1ccccc1
 : 5.1*	·
COc1ccc(NC(=O)Nc2nnc(COc3ccccc3F)s2)cc1
 : 1.2	4.7*
COc1ccc(NC(=O)COC(=O)CC2(CC3=NS(=O)(=O)c4ccccc4N3)CCCC2)cc1
 : 1.5	·
COc1cccc(C2/C(=C(\O)c3ccc(Cl)cc3)C(=O)C(=O)N2CCCn2ccnc2)c1 (stereo not drawn)
 : -0.14	1.7
Cn1cnc(S(=O)(=O)N2CCCC(C(=O)Nc3ccc(F)cc3Cl)C2)c1 (stereo not drawn)
 : -0.15	·
CCN(CC)c1ccc(C2C3=C(CCCC3=O)Nc3ncnn32)cc1 (stereo not drawn)
 : -0.35	-0.51
O=C(C1=Cc2cc(Br)ccc2OC1)N1CCCC1
 : 0.73	·
CCC(C(=O)NCCN1CCOCC1)N1C(=O)CCn2nc(C)cc21 (stereo not drawn)
 : 1.8	·
Cc1cccn2c(=O)c(C(=O)NCCN3CCOCC3)c(O)nc12
 : 0.72	-1.8
CCP(=O)(CC)CN(CC(C)C)CC(C)C
 : ·	-0.21
Cn1c2c(c(=O)n(C)c1=O)C(c1ccc(Cl)cc1)C1=C(N2)c2ccccc2C1=O (stereo not drawn)
 : -1.1	-0.58
COCCNC(=O)c1onc(C)c1Cl
 : 1.4	-1.1
Cc1nn(-c2nc3ccccc3s2)c2c1C(c1ccc3c(c1)OCO3)CC(=O)N2 (stereo not drawn)
 : 2.5	·
CC1Cc2cc(S(=O)(=O)NC3CCCCC3)ccc2N1C(=O)C1CC1 (stereo not drawn)
 : -1	·
O=C(Nc1ccccc1)OCCOc1cc(C(F)(F)F)ccn1
 : ·	-0.27
CN1c2ccccc2C(=O)N2CCc3c([nH]c4ccccc34)C21 (stereo not drawn)
 : 2.6	·
COc1ccc(-c2nnc(SCc3ccc(F)cc3)o2)c(OC)c1
 : 3	-0.38
Cc1ccc(S(=O)(=O)N/N=C/c2ccc(N(C)C)cc2Cl)cc1
 : ·	-0.64
CC(=O)O[C@H]1C(=O)[C@@]2(C)C([C@H](OC(=O)c3ccccc3)[C@]3(O)C[C@H](OC(=O)[C@H](O)[C@@H](NC(=O)c4ccccc4)c4ccccc4)C(C)=C1C3(C)C)[C@]1(OC(C)=O)CO[C@@H]1C[C@@H]2O (stereo partly drawn)
 : 1.3	·
CCOC(=O)c1ccc(NC(=O)C(=O)N/N=C/c2ccc(SC)cc2)cc1
 : ·	-3.1
CCc1nn(CC(=O)N2CCN(C3CCCCC3)CC2)c(=O)c2cc3sccc3n12
 : -0.14	-0.38
O=C(CN1C(=O)COc2ccc(S(=O)(=O)N3CCCC3)cc21)N1CCN(c2ccccn2)CC1
 : ·	0.77
CCCOc1ccc(/C(O)=C2\C(=O)C(=O)N(Cc3cccnc3)C2c2ccc(N(C)C)cc2)cc1C (stereo not drawn)
 : -0.92	-3.6
Cc1cc(C)cc(NS(=O)(=O)c2ccc(/C=C/c3onc(C)c3[N+](=O)[O-])s2)c1
 : 1.2	·
COc1ccc(-c2cccc(NS(=O)(=O)c3cc(C)c(C)cc3C)c2)nn1
 : 0.46	·
N#CC1C=Cc2ccccc2N1C(=O)c1ccccc1 (stereo not drawn)
 : ·	-2.6
O=C(Nc1noc2ccccc12)c1c(F)cccc1F
 : -1.1	0.19
CCOc1ccc(S(=O)(=O)N2CCN=C2c2ccccc2)cc1
 : 0.84	-1.9
Cc1nc(C(F)(F)F)ccc1C(=O)N1CCN(Cc2c(F)cccc2Cl)CC1
 : ·	-0.09
CN(C)CCCN1C(=O)c2oc3ccc(Cl)cc3c(=O)c2C1c1cccnc1 (stereo not drawn)
 : -0.2	·
CC(CCc1ccccc1)NC(=O)c1c(O)nc2ccccn2c1=O (stereo not drawn)
 : -0.05	-2.3
CC(C)N(CCCNC(=O)NC1COc2ccccc2C1)C1CCCCC1 (stereo not drawn)
 : 0.86	·
CS(=O)(=NC(=O)Nc1ccccc1)c1cccs1 (stereo not drawn)
 : ·	-1.3
CN(Cc1ccccc1)S(=O)(=O)c1ccc(NC2=NS(=O)(=O)c3ccccc32)cc1
 : 0.98	0.47
Cc1nn(C(C)C(=O)NC(C)C)c(=O)c2cc3sccc3n12 (stereo not drawn)
 : 1.2	-0.65
Cc1onc(-c2ccccc2)c1-c1ccnn1S(=O)(=O)c1ccc(Cl)cc1
 : ·	-0.51
Cc1cc(-c2nnnn2-c2cc(Cl)cc(Cl)c2)no1
 : ·	-1.4
Cc1[nH]c2ccccc2c1/C=C/c1nc2ccccc2c(=O)n1-c1c(C)n(C)n(-c2ccccc2)c1=O
 : -0.52	-1.4
CCCCCCNC(=O)OCCCCCCNC(=O)OC1CCNCC1
 : ·	-1.9
O=C(NCc1ccccn1)c1cnn(-c2cccc(F)c2)c1-n1cccc1
 : 0.92	·
Cc1ccc2cc(CCNC(=O)c3ccco3)c(=O)[nH]c2c1
 : ·	-1.9
Cc1scc(CCNC(=O)NC(C)C)c1C
 : 1.3	·
CC(C)c1ccc(NS(=O)(=O)c2ccc3c(c2)CC(C)N3C(=O)C2CC2)cc1 (stereo not drawn)
 : 0.95	·
CC1(C)CC(=O)C2=C(C1)Nc1nonc1NC2c1ccc(O)cc1 (stereo not drawn)
 : 0.98	1.2

Looked up above:
Entry for CC(C)c1ccc(NS(=O)(=O)c2ccc3c(c2)CC(C)N3C(=O)C2CC2)cc1 (stereo not drawn) under HIV TAR-Tat: 0.95
Entry for CCOC(=O)c1ccc(NC(=O)C(=O)N/N=C/c2ccc(SC)cc2)cc1 under CDC25B CDK2 inh: -3.1
Entry for CS(=O)(=NC(=O)Nc1ccccc1)c1cccs1 (stereo not drawn) under CDC25B CDK2 inh: -1.3

2 entries from above, as labelled records.
Cc1ccc2cc(CCNC(=O)c3ccco3)c(=O)[nH]c2c1
  HIV TAR-Tat: ·	CDC25B CDK2 inh: -1.9
Cc1nn(C(C)C(=O)NC(C)C)c(=O)c2cc3sccc3n12 (stereo not drawn)
  HIV TAR-Tat: 1.2	CDC25B CDK2 inh: -0.65

Reprinted at random: four entries already listed, in no set order.
Every second line gives: HIV TAR-Tat	CDC25B CDK2 inh
CC1(C)CC(=O)C2=C(C1)Nc1nonc1NC2c1ccc(O)cc1 (stereo not drawn)
 : 0.98	1.2
CC1CCc2[nH]c3ccc(C(=O)O)cc3c2C1 (stereo not drawn)
 : 0.54	-7
O=C(Nc1noc2ccccc12)c1c(F)cccc1F
 : -1.1	0.19
Cn1c2c(c(=O)n(C)c1=O)C(c1ccc(Cl)cc1)C1=C(N2)c2ccccc2C1=O (stereo not drawn)
 : -1.1	-0.58

Next part
Every second line gives: HIV TAR-Tat	CDC25B CDK2 inh
Cc1nnc(SCC(=O)Nc2ccc3c(c2)OCCO3)s1
 : ·	-0.79
Cc1cc(/C=N\Nc2ccc([N+](=O)[O-])cc2)c2c(C)ccc(C(C)C)cc1-2
 : ·	-0.76
CCN(CC)CCn1c(NCc2ccccc2Cl)nc2ccccc21
 : 1.1	1.1
CCc1ccc(NS(=O)(=O)c2ccc(-n3cccn3)cc2)cc1
 : 0.96	·
CCCN1C(=O)C2(SC(NC(C)=O)=NN2C(C)=O)c2ccccc21 (stereo not drawn)
 : ·	-3.6
CC(=O)N1c2ccc(S(=O)(=O)N3CCC(C(=O)NC4CCCCC4C)CC3)cc2CC1C (stereo not drawn)
 : 1.7	·
Cc1ccc(C)n1CCN1CCN(c2nc(Nc3ccc(F)cc3)c3cnn(C)c3n2)CC1
 : 1.2	·
CCc1ccc(NS(=O)(=O)c2cc(Br)cc3c2N(C(=O)C2CC2)CC3)cc1
 : ·	1.4
CC1CCN(c2nc(N)c([N+](=O)[O-])c(N3CCCC(C)C3)n2)CC1 (stereo not drawn)
 : 0.82	·
CC1(c2ccccc2)Nc2ccccc2-c2nc3ccccc3n21 (stereo not drawn)
 : ·	-0.69
CC(C)(C)C(=O)N1CCCC(C(=O)Nc2sc3c(c2C(N)=O)CCCC3)C1 (stereo not drawn)
 : -0.64	-2.7
Cc1ccc(-c2nc(CCN(C)S(=O)(=O)c3c(C)noc3C)no2)cc1
 : 2.1	·
Cn1c(=O)c2c(nc(CN3CCCCC3)n2CCCc2ccccc2)n(C)c1=O
 : -0.02	-0.77
CC(C)C(NS(=O)(=O)c1cccc2nsnc12)C(=O)N1CCC(N2CCCCC2)CC1 (stereo not drawn)
 : ·	-0.01
N/C(=N\OC(=O)/C=C/c1ccccc1)c1ccc(Cl)cc1
 : ·	-1.8
CSC1=N/C(=C\c2ccc(Cl)cc2)C(=O)N1CCc1c[nH]c2ccccc12
 : ·	-1.8
COc1ccccc1N1CCN(c2csc3ccc(F)cc3c2=O)CC1
 : -2.2	·
Cc1ccc(NC(=O)NC(C)c2c(-n3cccc3)sc(C)c2C)cc1 (stereo not drawn)
 : 1.8	-1.4
CC(C)(C)C(=O)CSc1nnc(-c2cnccn2)s1
 : ·	-1
COC(=O)CN1C(=O)CSc2ccc(S(=O)(=O)Nc3c(Cl)cc(OC)cc3OC)cc21
 : 0.72	·
Cn1c(=O)c2c(c3ccccc31)OC(=O)CC2c1ccccc1Br (stereo not drawn)
 : 1.3	-0.06
CCOC(=O)c1sc(=S)n(-c2ccc(Cl)cc2)c1N
 : 1.5	·
CC1Sc2cc(S(=O)(=O)NC(C)c3ccccc3)ccc2NC1=O (stereo not drawn)
 : 1.9	·
CN(CCCNC(=O)NC1COc2ccccc2C1)c1ccccc1 (stereo not drawn)
 : 1.8	·
CCc1nonc1NC(=O)c1ccco1
 : 1.6	-2
C=CCn1cnc2c(NCc3ccccc3)ncnc21
 : -1.1	-1.7
Cc1ccc(C(=O)N2CCN(c3ncccn3)CC2)o1
 : ·	-0.61
Nc1oncc1-c1ccc(Cl)cc1
 : 0.56	-2.2
Nc1ncc2c(n1)CC(c1ccco1)CC2=O (stereo not drawn)
 : -1.7	1.9
O=C(Cn1ncn2nc(-c3cccs3)cc2c1=O)N1CCC2(CC1)OCCO2
 : ·	-2.2
CCC(Sc1nc2ncccc2[nH]1)C(=O)N(CC)c1ccccc1 (stereo not drawn)
 : 1.9	·
COc1cc(-c2nc3cnccn3c2NC2CCCCC2)ccc1O
 : 0.37	-1
CCCOc1ccc(C2C3=C(Nc4c2c(=O)n(C)c(=O)n4C)c2ccccc2C3=O)cc1OC (stereo not drawn)
 : 0.54	-0.3
Cc1cc2n(n1)CCCN2C(=O)CCC(=O)N1CCc2ccccc21
 : 1.1	-0.21
Cc1cc(-c2ccc(S(=O)(=O)Nc3cccc(-c4ccno4)c3)cc2)on1
 : -0.47	·
O=C(O)CC1CCCc2ccccc2C1O (stereo not drawn)
 : ·	-1.7
CC(C)(C)c1ccc(CN(Cc2ccco2)S(=O)(=O)c2ccc(S(N)(=O)=O)cc2)cc1
 : 1.8	-1.2
Cc1c(C(=O)Nc2ccc(F)cc2)sc2nc3n(c(=O)c12)CCCC3
 : 0.62	·
COC(=O)c1c(-c2cccs2)csc1NC(=O)c1ccncc1
 : -1.1	-1.1
CC(C)c1ccc(S(=O)(=O)N2CCc3cc4ccccc4nc32)cc1
 : -1.4	-1.4
Cc1ccc(C(=O)c2cnc3cc4c(cc3c2N2CCCCC2)OCO4)cc1
 : 1.8	-1.6
Cc1ccc(NS(=O)(=O)c2cc(-c3ccc(=O)[nH]n3)cc(C)c2C)cc1
 : 1.9	·
Cc1ccc(-c2n[nH]c3c2cnc2cc4c(cc23)OCCO4)cc1
 : -0.73	·
Clc1ccccc1CNc1ncnc2ccccc12
 : ·	-1.3
Fc1ccccc1CSc1nc2cccnc2n1Cc1ccccc1
 : -1.3	·
CCCCSC1=NS(=O)(=O)c2ccc(C)cc2N1
 : 1.8	·
O=C(Cn1c(=O)c2cccn2c2cccnc21)N1CCOCC1
 : -0.99	·
CCCCn1c(-c2ccc(N)cc2)nc2ccccc21
 : 0.82	-2.2
CC(C)CCn1c(=O)c2ccccc2n2c(CCC(=O)NCCC3=CCCCC3)nnc12
 : 0.08	-0.41
CCOc1ccc(NC(=O)N2CCn3cccc3C2C)cc1 (stereo not drawn)
 : -7.1	·
CCOC(=O)c1ccc2[nH]cc(C(=O)OCC)c(=O)c2c1
 : 1.9	-0.06
